Screening data (PubChem)
VACV mCherry inh = inhibitors of vaccinia virus infection (mCherry reporter signal); Vaccinia virus mCherry reporter infection, fluorescence; about a quarter of the inactives have no number; Potency, µM (series often up to 36.5 µM), for the others: top-dose activity change, negative = inhibition, actives largely listed as inhibitors; 310,000 compounds, 0.63% hits; active = well fitted inhibition curve with a large enough effect; inconclusive = small, poorly fitted or top-dose-only effect; inactive = no such curve, though single readings can be large or run the other way; tested in A549 cells; also: nearly all actives have a fitted effect of over 35% in size; inactives centre near -10
VACV Venus inh = vaccinia inhibition (Venus reporter). Vaccinia virus Venus reporter expression, fluorescence. Potency, µM (highest dose often 36.5 µM), without a hit: top-dose activity change, negative = inhibition, usual class: inhibitors. 330,000 compounds, 0.46% hits; active means well fitted inhibition curve with a large enough effect; inconclusive means small, poorly fitted or top-dose-only effect; inactive means no such curve, though single readings can be large or run the other way; tested in A549 cells; also: nearly all actives have a fitted effect of over 30% in size; inactives centre near -10
* hit, by the source's call; & = joins results of further samples. % is scaled to controls: 0 for no effect and ±100 for the full control effect; potency is read from the fitted curve at half-maximal effect.

How did CSc1nnc(-c2ccc(S(=O)(=O)N3CCCCC3)cc2)o1 do in these assays?
VACV mCherry inh: 26%; VACV Venus inh: -9%

What do the screens show for `CCCCC(CC(O)COCC(C)C)C(=O)NN` (stereo not drawn)?
VACV mCherry inh: -6%; VACV Venus inh: -7%

What do the screens show for `O=C(CC1Nc2ccccc2NC1=O)Nc1ccccc1` (stereo not drawn)?
VACV mCherry inh: -29%; VACV Venus inh: -2%

Results for CCCCN1C(Nc2ccccc2)=NC[C@@H]1C ?
VACV mCherry inh: -12%; VACV Venus inh: 2%

How did Cc1oc2ncn(C)c(=O)c2c1C(=O)NC(C)c1ccccc1 (stereo not drawn) do in these assays?
VACV mCherry inh: -7%; VACV Venus inh: -12%

How did CCOC(=O)c1sc(NC(=O)CSc2nc3c(cc2C#N)CCCCC3)c(C#N)c1C do in these assays?
VACV mCherry inh: -3%; VACV Venus inh: -4%

What do the screens show for `Oc1ccc(N2CCN(C(=S)NCc3ccccc3)CC2)cc1`?
VACV mCherry inh: inconclusive; VACV Venus inh: -11%

What do the screens show for `Nc1ccc(CCN2CCN(c3cccc(C(F)(F)F)c3)CC2)cc1`?
VACV mCherry inh: -9%&-25%; VACV Venus inh: -27%&-23%

Results for Cc1cc2ccccc2n1-c1ccc(C(=O)N2CCC(C(=O)NCc3ccccc3Cl)CC2)s1 ?
VACV mCherry inh: inactive; VACV Venus inh: -14%

How did CC1(C)CC(NC(=O)COc2ccc([N+](=O)[O-])cc2)CC(C)(C)N1 do in these assays?
VACV mCherry inh: inactive; VACV Venus inh: -8%

How did CC1CCN(CCCNC(=O)CN2C(=O)CSc3ccc(S(=O)(=O)N4CCC(C)CC4)cc32)CC1 do in these assays?
VACV mCherry inh: -11%; VACV Venus inh: -13%

Results for CCCCCN=C(C)c1c(O)c2ccccc2oc1=O ?
VACV Venus inh: -21%

What do the screens show for `Cc1cc(NS(=O)(=O)c2ccc(NS(=O)(=O)c3ccc(Br)cc3)cc2)no1`?
VACV mCherry inh: -11%; VACV Venus inh: -20%

Results for COCCCNC(c1ccccc1)c1ccncc1 (stereo not drawn) ?
VACV mCherry inh: -16%; VACV Venus inh: -5%

Results for COc1ccc(CCNCc2c(-c3ccccc3)n(C)c3ccccc23)cc1 ?
VACV mCherry inh: -16%; VACV Venus inh: -17%

Molecules above with sulfur (6):
How did CSc1nnc(-c2ccc(S(=O)(=O)N3CCCCC3)cc2)o1 do in these assays?
VACV mCherry inh: 26%; VACV Venus inh: -9%

How did CCOC(=O)c1sc(NC(=O)CSc2nc3c(cc2C#N)CCCCC3)c(C#N)c1C do in these assays?
VACV mCherry inh: -3%; VACV Venus inh: -4%

What do the screens show for `Oc1ccc(N2CCN(C(=S)NCc3ccccc3)CC2)cc1`?
VACV mCherry inh: inconclusive; VACV Venus inh: -11%

Results for Cc1cc2ccccc2n1-c1ccc(C(=O)N2CCC(C(=O)NCc3ccccc3Cl)CC2)s1 ?
VACV mCherry inh: inactive; VACV Venus inh: -14%

How did CC1CCN(CCCNC(=O)CN2C(=O)CSc3ccc(S(=O)(=O)N4CCC(C)CC4)cc32)CC1 do in these assays?
VACV mCherry inh: -11%; VACV Venus inh: -13%

What do the screens show for `Cc1cc(NS(=O)(=O)c2ccc(NS(=O)(=O)c3ccc(Br)cc3)cc2)no1`?
VACV mCherry inh: -11%; VACV Venus inh: -20%

Next compounds:
How did C[C@H](CO)N1C[C@H](C)[C@@H](CN(C)S(=O)(=O)c2cccs2)Oc2ccc(NC(=O)Nc3ccccc3)cc2C1=O do in these assays?
VACV mCherry inh: -8%; VACV Venus inh: -13%

How did COc1cccc(Cn2c(=O)n(Cc3ccccc3)c(=O)c3c2c2cc(OC)ccc2n3C)c1 do in these assays?
VACV mCherry inh: 2%; VACV Venus inh: 3%

What do the screens show for `CN(C)c1nc(-c2ccccc2)cc(C(F)(F)F)c1C#N`?
VACV Venus inh: -14%

How did CCC(C)(C)c1ccc(OC(=O)c2cccnc2Cl)cc1 do in these assays?
VACV mCherry inh: -25%; VACV Venus inh: -11%

What do the screens show for `N#CC1(NC(=O)COc2ccc3oc4ccccc4c3c2)CCCCC1`?
VACV mCherry inh: inactive; VACV Venus inh: -6%

What do the screens show for `CC(C)(C)NC(=O)C(c1ccc(O)cc1)N(C(=O)CCC(=O)Nc1nccs1)c1ccc(F)cc1` (stereo not drawn)?
VACV mCherry inh: -1%; VACV Venus inh: -9%

Results for Cc1cc(Oc2nc3ccccn3c(=O)c2/C=C(\C#N)C(=O)NC2CCS(=O)(=O)C2)ccc1Cl (stereo not drawn) ?
VACV mCherry inh: -2%; VACV Venus inh: -11%

How did COc1cc(OC)cc(-c2c(-c3cccs3)c3cc(-c4ccc5cc[nH]c5c4)ccc3n2C)c1 do in these assays?
VACV mCherry inh: inconclusive; VACV Venus inh: -20%

What do the screens show for `CCc1ccc(OCc2nc(-c3ccc(OC)c(OC)c3)no2)c(Br)c1`?
VACV mCherry inh: -7%; VACV Venus inh: -12%

What do the screens show for `COc1ccc(C2C(C(=O)Nc3ccc(C)cc3C)=C(C)Nc3nc(SCc4cccc(C)c4)nn32)c(OC)c1` (stereo not drawn)?
VACV mCherry inh: -19%; VACV Venus inh: -9%

How did CCc1cc2cccc(C)c2nc1SCC(=O)NC1CCCC1 do in these assays?
VACV mCherry inh: -11%; VACV Venus inh: 5%

What do the screens show for `CC(C)CNC(=O)CCc1nc(-c2ccccc2)no1`?
VACV mCherry inh: -7%; VACV Venus inh: -7%

What do the screens show for `CC(=O)Nc1ccc(SCC(=O)OCC(=O)NC(=O)NCCC(C)C)cc1`?
VACV mCherry inh: inactive; VACV Venus inh: -12%

What do the screens show for `CSc1ccccc1NC(=O)CSCc1ccc(Br)cc1`?
VACV mCherry inh: -15%; VACV Venus inh: 2%

Results for Cc1nc2c(-c3ccc(F)cc3)c(C)nn2c(C)c1CCC(=O)N1CCOCC1 ?
VACV mCherry inh: inactive; VACV Venus inh: -19%

How did Cc1cc(C(=O)CN2C(=O)c3ccccc3C2=O)c(C)n1C1CC1 do in these assays?
VACV mCherry inh: -12%; VACV Venus inh: -2%

How did Cc1cccc(NC(=O)c2cccc(S(=O)(=O)N3CCc4ccccc4C3)c2)n1 do in these assays?
VACV mCherry inh: -3%; VACV Venus inh: -25%

Results for Cc1nn(Cc2ccccc2Cl)c(Cl)c1C(=O)OC(C(=O)NC(N)=O)C(C)C (stereo not drawn) ?
VACV mCherry inh: inactive; VACV Venus inh: -14%

Results for CC(Oc1ccc2c(-c3ccccc3)cc(=O)oc2c1)C(=O)NC(Cc1c[nH]c2ccc(O)cc12)C(=O)O (stereo not drawn) ?
VACV mCherry inh: 4%; VACV Venus inh: -8%

How did CCN1CCN(c2ccc(S(=O)(=O)N3CCCCC3)cc2NC(=O)COc2cc(C)ccc2Cl)CC1 do in these assays?
VACV mCherry inh: -20%; VACV Venus inh: inconclusive

How did CCOC(=O)Cc1csc(SCC(=O)Nc2cc(Cl)ccc2Oc2ccccc2)n1 do in these assays?
VACV Venus inh: -28%

Results for COc1ccc(C2=Nc3ccccc3NC(=O)C2N(Cc2ccccc2)C(=O)C2=NNC(=O)CC2)cc1 (stereo not drawn) ?
VACV mCherry inh: 2%; VACV Venus inh: -7%

What do the screens show for `CC(=O)N1CCN(c2ccccc2NC(=O)c2cc(Br)ccc2Cl)CC1`?
VACV Venus inh: -8%

How did CCCC(C(=O)NC1=NCCS1)c1ccccc1 (stereo not drawn) do in these assays?
VACV mCherry inh: -10%; VACV Venus inh: -9%

What do the screens show for `COc1ccc(C2CC(c3cccs3)=NN2C(=O)c2ccccc2)cc1OC` (stereo not drawn)?
VACV mCherry inh: -12%; VACV Venus inh: -5%

Results for CCOC(=O)c1c(-c2ccccc2)csc1NC(=O)c1cc(-c2cccc(Cl)c2)on1 ?
VACV mCherry inh: -12%; VACV Venus inh: -11%

How did CC(=O)Nc1ccc(NC(=O)C(C)OC(=O)c2ccc(S(=O)(=O)N3CCCCC3)cc2)cc1 (stereo not drawn) do in these assays?
VACV mCherry inh: -13%; VACV Venus inh: -3%

What do the screens show for `C=CCn1cc(C(=O)N2CCN(CC)CC2)c(=O)c2cc(S(=O)(=O)N(CC)CC)ccc21`?
VACV mCherry inh: 1%; VACV Venus inh: -13%

How did COc1cc(OC)c2c(c1C(CCN1CCOCC1)c1ccc(N(C)C)cc1)OC(=O)CC2c1ccc(N(C)C)cc1 (stereo not drawn) do in these assays?
VACV mCherry inh: -23%; VACV Venus inh: -27%

Results for CC(C1=C(CCN(C)C)Cc2ccccc21)c1ccccn1 (stereo not drawn) ?
VACV mCherry inh: inactive; VACV Venus inh: -11%

No new results follow: an excerpt of the list.
How did COc1cc(OC)c2c(c1C(CCN1CCOCC1)c1ccc(N(C)C)cc1)OC(=O)CC2c1ccc(N(C)C)cc1 (stereo not drawn) do in these assays?
VACV mCherry inh: -23%; VACV Venus inh: -27%

Results for CC(C1=C(CCN(C)C)Cc2ccccc21)c1ccccn1 (stereo not drawn) ?
VACV mCherry inh: inactive; VACV Venus inh: -11%

Additional entries
Results for O=C(O)c1cccc(NS(=O)(=O)c2ccc(-c3ccc(S(=O)(=O)Nc4cccc(C(=O)O)c4)cc3)cc2)c1 ?
VACV mCherry inh: inactive; VACV Venus inh: -11%

What do the screens show for `Cc1cc(C=C2C(=O)N(C)C(=S)N(C)C2=O)c(C)n1C1CCCC1`?
VACV mCherry inh: -3%; VACV Venus inh: -6%

What do the screens show for `COc1cc(OC)cc(C(=O)NC2=NCCS2)c1`?
VACV mCherry inh: inactive; VACV Venus inh: -10%

What do the screens show for `Cc1c(NC(=S)N/N=C/c2ccc(Br)cc2)c(=O)n(-c2ccccc2)n1C`?
VACV mCherry inh: -13%; VACV Venus inh: -19%

What do the screens show for `Cc1cc(C(=O)CCC(=O)N(C)CC(=O)Nc2ccc(OC(F)(F)F)cc2)c(C)s1`?
VACV mCherry inh: -10%; VACV Venus inh: -8%

How did COCCCn1c(CCC(=O)O)ccc1-c1ccc(F)cc1 do in these assays?
VACV Venus inh: 4%

How did O=C(Cc1ccc(F)cc1)N1CCN=C1SCc1ccc([N+](=O)[O-])cc1 do in these assays?
VACV mCherry inh: -25%; VACV Venus inh: -18%

Results for COc1ccc(/C=C2\SC(=S)N(C(C)C(=O)NC3C=CS(=O)(=O)C3)C2=O)cc1 (stereo not drawn) ?
VACV mCherry inh: inconclusive; VACV Venus inh: -10%

What do the screens show for `CCOC(=O)Cc1nnc(Nc2ccc(C)cc2)c2ccccc12`?
VACV Venus inh: inconclusive

Results for Cc1cc(-n2c(SCc3ccccc3F)nc3n[nH]c(C)c3c2=N)ccc1Cl ?
VACV mCherry inh: -17%; VACV Venus inh: -22%

What do the screens show for `S=C(NCc1ccccc1)NCc1ccccn1`?
VACV mCherry inh: -12%; VACV Venus inh: -7%

How did Cn1c(SCC(=O)Nc2ccc(NC(=O)c3ccccc3)cc2)nnc1-c1ccncc1 do in these assays?
VACV mCherry inh: 13%; VACV Venus inh: -1%

Results for O=C(COC(=O)CCC1CCCC1)Nc1cc(S(=O)(=O)N2CCOCC2)ccc1Cl ?
VACV mCherry inh: inactive; VACV Venus inh: -13%

What do the screens show for `CN1CN(C)C(c2ccncc2)=C1c1ccncc1`?
VACV mCherry inh: inactive; VACV Venus inh: -5%

Results for Nc1nonc1-n1nnc(C(=O)N/N=C/c2cc(Br)ccc2O)c1CSC1=NCCS1 ?
VACV mCherry inh: 7.1µM*; VACV Venus inh: inconclusive

Some of these compounds in order of molar mass, highest first.
How did CCN1CCN(c2ccc(S(=O)(=O)N3CCCCC3)cc2NC(=O)COc2cc(C)ccc2Cl)CC1 do in these assays?
VACV mCherry inh: -20%; VACV Venus inh: inconclusive

What do the screens show for `CC(C)(C)NC(=O)C(c1ccc(O)cc1)N(C(=O)CCC(=O)Nc1nccs1)c1ccc(F)cc1` (stereo not drawn)?
VACV mCherry inh: -1%; VACV Venus inh: -9%

Results for Cc1nc2c(-c3ccc(F)cc3)c(C)nn2c(C)c1CCC(=O)N1CCOCC1 ?
VACV mCherry inh: inactive; VACV Venus inh: -19%

What do the screens show for `Nc1ccc(CCN2CCN(c3cccc(C(F)(F)F)c3)CC2)cc1`?
VACV mCherry inh: -9%&-25%; VACV Venus inh: -27%&-23%

(listing goes on)
How did CC(C)c1ccc(/C=C2\NC(=S)N(Cc3cccnc3)C2=O)cc1 do in these assays?
VACV mCherry inh: inactive; VACV Venus inh: -4%

Results for CSc1oc(-c2ccco2)nc1S(=O)(=O)c1ccc(F)cc1 ?
VACV mCherry inh: -20%; VACV Venus inh: 3%

What do the screens show for `COc1ccc2c(c1)OC1(C)CC2C(C(=O)c2ccccc2OC)C(=O)N1` (stereo not drawn)?
VACV mCherry inh: 8%; VACV Venus inh: -3%

What do the screens show for `CCN(CC)C(=O)[C@H]1CC(CC(=O)NC(C)(C)C)C(=O)N2CCc3c([nH]c4ccccc34)[C@]12C` (stereo partly drawn)?
VACV mCherry inh: 15%; VACV Venus inh: 0%

How did COc1ccc(CCNC(=O)c2ccc3c(c2)NC(=O)CS3)cc1OC do in these assays?
VACV mCherry inh: inactive; VACV Venus inh: -10%

What do the screens show for `Cc1nc2[nH]c(=S)n(C)c(=O)c2nc1C`?
VACV mCherry inh: -11%; VACV Venus inh: -3%

Results for O=C(c1cc(COc2c(F)cccc2F)on1)N1C[C@H]2CC[C@H]1C2 ?
VACV mCherry inh: inactive; VACV Venus inh: -18%

How did COc1cccc(OC)c1C(=O)Nc1ccc(N2CCCC2)cc1 do in these assays?
VACV mCherry inh: -16%; VACV Venus inh: -11%

What do the screens show for `CN(c1ccccc1)S(=O)(=O)c1cc(C(=O)c2nccn2C)ccc1Cl`?
VACV mCherry inh: -19%; VACV Venus inh: 1%

Results for Cc1cc(O)cc(O)c1-c1onc(C(F)(F)F)c1-c1cscn1 ?
VACV Venus inh: inconclusive

This is a random part of the collection; overall some 0.86% were active at least once.
